High-throughput results (PubChem BioAssay)
H5N1 antiviral – MDCK cell protection from H5N1 avian flu; cytopathic effect, luminescence, 72 h; hits give high values; no value below 0 was filed and about half of the inactive calls have no number; reference of the scale not given here; inhibition, % at 50 µM; hit rate 0.07% among 96,000; AID 740, 2007; in the data active = inhibition above about 25%
An asterisk follows results filed as active; i = inactive. The list is partial, so the mix of outcomes need not match the whole.

SMILES | H5N1 antiviral
C=CCc1cc(/C=C2/NC(=S)NC2=O)cc(OC)c1O | i
O=C(CN1C(=O)c2ccccc2S1(=O)=O)Nc1ccccc1 | 1.1
Cn1nc(C(F)(F)F)c(C(=O)Nc2ccc(F)cc2F)c1Sc1ccc(Cl)cc1 | 1.2
CCC(=O)N1CCN(c2ccccc2NC(=O)COc2ccccc2Cl)CC1 | i
COc1ccc(-c2noc(-c3ccc4c(c3)OCO4)n2)cc1 | 0.1
Cc1ccccc1NC(=S)NC(=O)CCc1ccccc1 | 1.3
Cc1ccccc1Cn1ccc(NC(=O)c2cnn3cccnc23)n1 | i
O=C1C(c2ccc(F)cc2)N(Cc2ccc3c(c2)OCO3)C(=O)CN1C1CCCCC1 (configuration not stated) | 1.3
C=C(C)CSc1nnc(-c2ccccc2)n1N | 0.8
Cn1c(CO)c(-c2ccccc2)c2cc([N+](=O)[O-])ccc21 | 0.1
O=S1(=O)C=CC(Sc2nc3ccccc3[nH]2)C1 (configuration not stated) | i
O=C(CCC1N=C2c3ccccc3N=C(SCc3cccc(Cl)c3)N2C1=O)NCc1ccco1 (configuration not stated) | i
Cc1ccc(S(=O)(=O)N2CCC(C(=O)NNS(=O)(=O)c3ccc(Cl)cc3)CC2)cc1 | 3.7
CC1Cc2ccccc2N1C(=O)c1cccnc1 (configuration not stated) | i
O=Nc1ccc(NOC(=O)c2ccc(Br)cc2)cc1 | i
Cc1nnc(SCc2ccc(CC(=O)O)cc2)o1 | i
CCOc1ccccc1/C=N/NC(=O)Cc1csc(Nc2cccc(C(F)(F)F)c2)n1 | 3.9
COc1ccc(-c2cc(-c3ccccc3O)[nH]n2)cc1OC | i
O=C(O)CC(C(=O)Nc1ccc(Cl)c(Cl)c1)C1CCCO1 (configuration not stated) | i
Cc1ccc(-n2ncc3c(NCCCN4CCOCC4)ncnc32)c(C)c1 | i
COc1cc(/C=N/NC(N)=O)ccc1OC(=O)c1ccc(C)cc1 | i
O=C1N=C(c2ccccc2)C(c2ccccc2)N1 (configuration not stated) | i
O=C(O)c1ccc(CNCc2ccccc2Cl)cc1 | 0.4
Cc1cc2nc(-c3ccc(NC(=O)c4cccnc4)cc3)oc2cc1C | i
CCn1nc(C(=O)NC2=NCCS2)c2ccccc2c1=O | 0.1
SMILES | H5N1 antiviral
C=CCNC(=O)c1onc(CSc2cc(C)cc(C)c2)c1C(=O)O | i
O=C(C1CCCCN1S(=O)(=O)c1ccc(F)cc1)N1CCN(c2ccccc2F)CC1 (configuration not stated) | 1.1
COc1ccc(NC(=O)CCSc2nnc(C)s2)cc1 | i
COc1ccc2[nH]c(=O)c(CN(CCCN(C)C)C(=O)Nc3ccc(F)cc3)cc2c1 | i
COc1ccccc1N1CCN(C(=O)/C=C/c2ccc3c(c2)OCO3)CC1 | i
O=S(=O)(c1ccc(F)cc1)N1CCC(N2CCCCCC2)CC1 | i
COc1ccc(CCNc2ccncn2)cc1 | 0.9
CCOC(=O)C1=C(C)NC(=O)NC1c1ccco1 (configuration not stated) | i
CCCCSc1nnc2n(CCc3ccccc3)c(=O)c3c4c(sc3n12)COC(C)(C)C4 | 0.3
O=C1CN(C(=O)COC(=O)CCSc2ccccc2Cl)c2ccccc2N1 | 0.1
Cc1ccc(S(=O)(=O)N/N=C/c2ccc(C(=O)O)cc2)cc1 | 0.2
Cc1ccc2nc(NC(=O)CNS(=O)(=O)c3ccc(Br)s3)sc2c1 | i
COc1ccc(C(=O)/C=C(/C)N(C)C)cc1 | i
O=C(Nc1cccc(-c2cn3cccnc3n2)c1)c1ccc2c(c1)OCO2 | i
CCN(CC)CCCN=Cc1c(O)n(CCc2ccc(F)cc2)c(=O)[nH]c1=O | 0.7
O=C(Nc1cccc(Cl)c1)NC1CCCCC1 | 0.8
CCCCOc1ccc(C2CC(=O)NC2=O)cc1 (configuration not stated) | i
Cc1cccc(NC(=S)N(C)C2(c3ccccc3Cl)CCCCC2=O)c1 (configuration not stated) | 1.6
O=C(O)c1ccccc1C(=O)Nc1ccccc1 | 0.3
COc1cc2c(cc1OC)C(C(=O)N1CCN(c3ccccc3)CC1)C(c1cccs1)N(C)C2=O (configuration not stated) | i
Cc1ccc(CN2CCC(C(=O)NCCC(C)C)CC2)o1 | i
CC(=O)c1c(C)n([O-])c2ccc(C)cc2[n+]1=O | i
Cc1[nH]n(-c2ccc(F)cc2)c(=O)c1/C=N/c1sc2c(c1C#N)CCCC2 | i
COc1ccc(CN2CCN(c3ccccc3F)CC2)cc1O | 0.4
COc1ccc(Cc2nnc(SCC(=O)NC(C)c3ccccc3)o2)cc1 (configuration not stated) | 3.6
SMILES | H5N1 antiviral
CCCCC(CCC(=O)Nc1ccccc1C(=O)OCC)C(=O)O (configuration not stated) | 0.2
Cc1ccc(C(=O)CC2(O)C(=O)N(C)c3ccc(Br)cc32)c(C)c1 (configuration not stated) | 4.4
Oc1ccc(CNC2CCCCC2)cc1 | 1.4
Cc1ccc2nc(-c3ccc(O)cc3)c(Nc3ccc4c(c3)OCCO4)n2c1 | i
COC(=O)C(Cc1cnc(Cl)s1)(C(=O)OC)c1ccc([N+](=O)[O-])cc1 | i
COc1cc2c(C(=O)Nc3ccc4c(c3)OCO4)cn(CC(C)C)c(=O)c2cc1OC | i
Cn1c(-c2ccc3c(c2)OCO3)cnc1NC(=O)CCC(=O)NCCc1ccccc1 | i
O=C(NCCCn1ccnc1)c1ccco1 | 0.3
O=C(CSc1nc(-c2ccccc2)c(-c2ccccc2)o1)N1CCOCC1 | 1.6
CCOC(=O)Cc1csc(NC(=O)c2ccncc2)n1 | 1.1
CCCCN(CC)C(=O)/C=C/c1cccc([N+](=O)[O-])c1 | 0.6
COc1ccc(NC(=O)C2CCCN(S(=O)(=O)c3ccc4c(c3)oc(=O)n4C)C2)c(OC)c1 (configuration not stated) | 1.6
Nc1nc(C23CC4CC(CC(C4)C2)C3)cs1 | 3.5
COC(=O)Nc1ccc(S(=O)(=O)N2CCCC(C(=O)Nc3cccc4c3OCCO4)C2)cc1 (configuration not stated) | 4.3
CCC(C)[C@H](NC(=O)NCc1ccccc1Cl)C(=O)OC (some centres not stated) | i
O=C(CCCOc1ccccc1)NCC1CCCO1 (configuration not stated) | i
CC1(C)CC(=O)C2=C(C1)OC(N)=C(C#N)C21CCC2(CC1)OCCO2 | i
Cc1ccc([N+](=O)[O-])cc1-c1ccc2cccc(C)c2n1 | 0.8
O=c1[nH]c2ccccc2c(=O)n1CCCO | i
O=C(CSc1nnnn1-c1ccccc1)c1cc2ccccc2oc1=O | i
CCOC(=O)N1CCN(c2c(NCCCN(CC)c3cccc(C)c3)c(=O)c2=O)CC1 | 2.4
Cn1c(=O)cc(SCC(=O)Nc2ccc3c(c2)OCO3)c2ccccc21 | 0.1
N=c1c2c3c(sc2nc2n1CCC2)CCCC3 | 0.4
Nc1nc(N2CCCCC2)nc(N2CCCCC2)n1 | 0.1
Cc1nc(=O)c(-c2ccccc2)c(C)n1CCCO | i

An excerpt of these results, as labelled records.
CCOC(=O)N1CCN(c2c(NCCCN(CC)c3cccc(C)c3)c(=O)c2=O)CC1
- H5N1 antiviral: 2.4

Cn1c(=O)cc(SCC(=O)Nc2ccc3c(c2)OCO3)c2ccccc21
- H5N1 antiviral: 0.1

Remaining list, next part
SMILES | H5N1 antiviral
CCN1C(=O)c2cccc3c(S(=O)(=O)Nc4nc(C)cs4)ccc1c23 | i
C=CCn1c(O)c(C(C)=Nc2ccc(C(=O)OCC)cc2)c(=O)[nH]c1=O | 0.5
Cc1ccc2[nH]c(C(=O)O)c(-c3ccccc3)c2c1 | i
COC(=O)c1ccc(N=C2S/C(=C\c3cc(C)n(-c4cccnc4)c3C)C(=O)N2C)cc1 | 0.5
CCNCc1nc2cc(OC)c(OC)cc2c(=O)[nH]1 | i
CC1Oc2ccccc2N(CC(=O)c2cccc(Cl)c2)C1=O (configuration not stated) | 1.0
COC(=O)c1ccccc1NC(=O)NCc1ccc2c(c1)OCO2 | 0.3
COC(=O)COc1ccc(NC(=O)C2CCCO2)cc1 (configuration not stated) | 1.0
O=C(CSCc1ccc(Cl)cc1)N1CCCCC1 | 0.4
COc1ccc(Cn2cnc3sccc3c2=O)cc1 | i
O=S(=O)(c1ccccc1)N1CCN(c2ncccn2)CC1 | i
CCN(CC)CCN1C(=O)C(=O)/C(=C(/O)c2ccc(OC)c(OC)c2)C1c1ccccn1 (configuration not stated) | 2.1
Cc1nc(-c2cccc(S(=O)(=O)N3CC(C)OC(C)C3)c2)cs1 (configuration not stated) | i
COCCNC(=O)c1cc2cc(Br)cc(OC)c2oc1=O | 1.2
C=CCn1c(SCCN2CCCCC2)nc2c1c(=O)[nH]c(=O)n2C | 2.6
O=C(Nc1ccc(N2CCN(C(=O)c3ccco3)CC2)cc1)c1ccccc1F | 0.1
Cc1cccc(NC2=NCC(=O)N2Cc2ccccc2)c1 | 0.1
COC(=O)CNC(=O)CN1C(=O)N(c2cccc(Cl)c2)C(N(O)C(=O)Nc2cccc(Cl)c2)C1(C)C (configuration not stated) | i
O=C(NCc1ccccc1)C1C(=O)N(Cc2ccccc2)C(=O)C1C1(O)CCCC1 (configuration not stated) | i
Fc1ccc(-c2csc3nnc(SCc4cccnc4)n23)cc1 | i
CCCCCOC(=O)CSc1nc2c(c(=O)[nH]c(=O)n2C)n1CCc1ccccc1 | 3.1
CCc1[nH]nc2c1C1(CCN(C(=O)c3ccccc3)CC1)C(C#N)=C(N)O2 | i
CC1=C(C(=O)Nc2ccccn2)C(c2ccc(F)cc2)n2ncnc2N1 (configuration not stated) | 0.3
COC(C(=O)Nc1ccc(S(=O)(=O)N2CCCCC2)cc1)c1ccccc1 (configuration not stated) | 3.2
CCc1cccc(NC(=O)CS(=O)Cc2nc(-c3ccc(C)cc3)oc2C)c1 (configuration not stated) | 0.7
SMILES | H5N1 antiviral
CNC(=O)CSc1nnc(-c2ccc(S(=O)(=O)N3CCCC3)cc2)n1-c1cccc(C)c1C | 5.0
O=C(Nc1cccnc1)c1cc(-c2ccc3c(c2)OCO3)on1 | i
CC(C)(C)OC(=O)CN1C(=O)C(Sc2n[nH]c(-c3ccccc3)n2)CCc2ccccc21 (configuration not stated) | 1.6
COCCn1nnnc1C(c1ccccc1Cl)N1CCN(c2ccccc2OC)CC1 (configuration not stated) | 1.3
CN1CCC(N(C)Cc2cccnc2)CC1 | i
COC(=O)c1sc(S(=O)(=O)N2CCC(C(=O)O)CC2)c(C(=O)OC)c1C | i
Nn1c(Cc2cccc3ccccc23)nnc1SC1CCOC1=O (configuration not stated) | 0.5
COc1ccc(CNC(=O)CN2C(=O)C(C)N(c3ccc(C)cc3)C2=O)cc1 (configuration not stated) | i
COC(=O)c1[nH]c2ccc(C)cc2c1NC(=O)CN1CCN(C(=O)c2ccccc2)CC1 | 0.7
O=C1Cc2ccccc2Sc2ccccc21 | i
CCn1c(NC2CCCCC2)nc2ccccc21 | 0.6
c1ccc(-c2noc(-c3ccccc3-c3ccccc3)n2)cc1 | i
O=C(CN1CCOCC1)Nc1cccc(Br)c1 | 0.1
O=C(CSC1=NCCN1)C1COc2ccccc2O1 (configuration not stated) | 1.5
O=c1c2[nH]c3cccc(Cl)c3c2ncn1CCN1CCCCC1 | 0.2
CCOc1ccc(C(=O)SC2=NCCS2)cc1 | i
O=C(CCCn1c(=O)[nH]c2cc(Cl)ccc2c1=O)NCCC1=CCCCC1 | i
COc1ccc(C(CC(=O)NCCCN2CCOCC2)NS(=O)(=O)c2ccc(C)cc2)cc1 (configuration not stated) | i
Cc1cc(C)n2nc(C)[n+](C)c2n1 | i
CCn1nc(CC(=O)Nc2ccc(-n3cnnn3)c(OC)c2)c2ccccc2c1=O | i
Cc1cccc(CCNS(=O)(=O)c2ccc3c(c2)oc(=O)n3C)c1 | i
Cc1cc2c(ccc3c2no[n+]3[O-])nn1 | 0.5
CN(C)c1ccc(NC(=O)c2cn(-c3ccccc3)nc2-c2cccs2)cc1 | i
Cn1nnc2cc(C(=O)NC3CC3)ccc21 | 2.0
CC(C)(C)c1nc(NCCN2CCOCC2)c2nnn(Cc3ccccc3Cl)c2n1 | i
SMILES | H5N1 antiviral
CN1C(=O)/C(=C2/C=Cc3ccccc3N2CCCS(=O)(=O)O)SC1=S | 0.9
CCCn1c(SCC(=O)NCCc2ccc(OC)c(OC)c2)nc2c1c(=O)n(C)c(=O)n2C | 1.8
Cn1cc(SCC(N)=O)c2ccccc21 | 2.3
O=C(c1nn2cccnc2c1Cl)N1CCN(c2ccccc2)CC1 | i
O=C(Cc1cccs1)Nc1nncs1 | i
CCOC(=O)c1ccc(NCc2nc3ccccc3n2C)cc1 | i
CCN1C(c2ccc(F)cc2)=CS/C1=C(\C#N)c1nnc2n1-c1ccccc1SC2 | 1.2
CCCC(=O)NC(NC(=S)Nc1c(C)n(C)n(-c2ccccc2)c1=O)C(Cl)(Cl)Cl (configuration not stated) | 0.3
O=C(OCC#CCSc1nnc(-c2ccccc2)o1)c1ccco1 | i
Cc1ccc(N2C(=O)C3C(c4ccccc4)(C2=O)C3(c2ccccc2)c2ccccc2)cc1 (configuration not stated) | i
O=C(NCc1nc2ccccc2[nH]1)c1ccco1 | 1.1

Structures shown so far containing two or more sulfur atoms, in the order listed:
SMILES | H5N1 antiviral
O=S1(=O)C=CC(Sc2nc3ccccc3[nH]2)C1 (configuration not stated) | i
Cc1ccc(S(=O)(=O)N2CCC(C(=O)NNS(=O)(=O)c3ccc(Cl)cc3)CC2)cc1 | 3.7
COc1ccc(NC(=O)CCSc2nnc(C)s2)cc1 | i
CCCCSc1nnc2n(CCc3ccccc3)c(=O)c3c4c(sc3n12)COC(C)(C)C4 | 0.3
Cc1ccc2nc(NC(=O)CNS(=O)(=O)c3ccc(Br)s3)sc2c1 | i
CCN1C(=O)c2cccc3c(S(=O)(=O)Nc4nc(C)cs4)ccc1c23 | i
Cc1nc(-c2cccc(S(=O)(=O)N3CC(C)OC(C)C3)c2)cs1 (configuration not stated) | i
Fc1ccc(-c2csc3nnc(SCc4cccnc4)n23)cc1 | i
CNC(=O)CSc1nnc(-c2ccc(S(=O)(=O)N3CCCC3)cc2)n1-c1cccc(C)c1C | 5.0
COC(=O)c1sc(S(=O)(=O)N2CCC(C(=O)O)CC2)c(C(=O)OC)c1C | i
CCOc1ccc(C(=O)SC2=NCCS2)cc1 | i
CN1C(=O)/C(=C2/C=Cc3ccccc3N2CCCS(=O)(=O)O)SC1=S | 0.9
O=C(Cc1cccs1)Nc1nncs1 | i
CCN1C(c2ccc(F)cc2)=CS/C1=C(\C#N)c1nnc2n1-c1ccccc1SC2 | 1.2
